RE007 growth inh: less growth of the S. pombe RE007 Vpr strain; 360,000 compounds, 0.21% hits; S. pombe RE007 Vpr strain, BacTiter-Glo ATP luminescence, 24 h; control for the full effect not named in the record; Potency, µM (top dose mostly 92.2 µM), for inactives: at the highest dose activity change, negative = less growth; AID 651644; active = well fitted falling curve with a large enough effect; inconclusive = small, poorly fitted or top-dose-only effect; inactive = no such curve, though single readings can be large or run the other way;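 also: % is scaled to controls: 0 for no effect and ±100 for the full control effect; nearly all actives have a fitted effect of over 50% in size; the assay follows cell death caused by Vpr and the record does not say whether a fall means rescue or toxicity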
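Fission yeast RE007 carrying one integrated HIV-1 vpr copy, seeded at OD 0.01 in PMG+AL medium with 23 nL pinned compound. Grown 24 h at 30 degrees; viability read by BacTiter-Glo luminescence after 5 min.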
SARS PLP yeast: blocks SARS-CoV papain-like protease in a yeast assay; S. cerevisiae expressing SARS-CoV PLpro, growth rescue; control for the full effect not named in the record; Potency, µM (titrated, usually from 32.9 µM), for the others: at the highest dose activity, positive = growth rescue; 330,000 compounds, 0.19% hits; active means well fitted rising curve with a large enough effect; inconclusive means small, poorly fitted or top-dose-only effect; inactive means no such curve, though single readings can be large or run the other way; also: 0% is about no effect; nearly all actives have a fitted effect of over 55% in size; growth read by luminescence after 48 h
Cruzain inh noDet: cruzain (T. cruzi) inhibition without detergent; P25779; purified cruzain, Z-FR-AMC fluorescence, no detergent; Potency, µM, without a hit: max response, negative = inhibition, actives largely listed as inhibitors; 200,000 compounds, 2.3% hits; AID 1476;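 also: plate controls were enzyme without inhibitor for no effect and buffer without enzyme for full effect; nearly all actives have a fitted effect of over 40% in size; top concentration of the series not given in the record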
Target sequence (P25779 123-467 limits assumed): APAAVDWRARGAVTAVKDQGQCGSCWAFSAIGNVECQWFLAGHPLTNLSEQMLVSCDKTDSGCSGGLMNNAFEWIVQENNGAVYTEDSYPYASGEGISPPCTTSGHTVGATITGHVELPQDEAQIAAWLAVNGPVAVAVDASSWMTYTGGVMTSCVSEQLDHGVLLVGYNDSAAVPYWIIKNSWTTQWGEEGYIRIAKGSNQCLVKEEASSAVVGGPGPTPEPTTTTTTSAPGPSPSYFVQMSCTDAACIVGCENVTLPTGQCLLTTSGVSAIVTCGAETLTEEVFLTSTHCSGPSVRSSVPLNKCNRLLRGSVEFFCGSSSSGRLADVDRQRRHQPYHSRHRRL
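Purified cruzain at 1.5 nM, pre-incubated 15 min with compound at room temperature in 100 mM sodium acetate pH 5.5, 5 mM DTT, 0.00005% Triton X-100. Reaction started with 2 uM Z-FR-AMC; AMC fluorescence increase over 60 s gives rate.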
StopGo reporter: FMDV 2A StopGo reporter, luciferase signal; human cells with a luciferase reporter of 2A StopGo recoding; control for the full effect not named in the record; 410,000 compounds, 1.2% hits; Potency, µM (highest dose often 57.9 µM), for inactives: at the highest dose signal change, negative = less light; active = well fitted falling curve with a large enough effect; inconclusive = small, poorly fitted or top-dose-only effect; inactive = no such curve, though single readings can be large or run the other way; tested in HEK293T cells; also: % is scaled to controls: 0 for no effect and ±100 for the full control effect; nearly all actives have a fitted effect of over 45% in size; luciferase light after 4 h
Cruzain inh Det: cruzain (T. cruzi) inhibition with detergent | P25779 | purified cruzain, Z-FR-AMC fluorescence, 0.01% Triton | Potency, µM, inactives show max response, negative = inhibition, usual class: inhibitors | 200,000 compounds, 0.43% hits;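 also: plate controls were neutral wells for no effect and buffer without enzyme for full effect; nearly all actives have a fitted effect of over 40% in size; top concentration of the series not given in the record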
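Cysteine protease activity tested under reducing, mildly acidic conditions (100 mM sodium acetate pH 5.5, 5 mM DTT) plus 0.01% Triton X-100. Cruzain 1.5 nM; substrate Z-FR-AMC 2 uM; 15 min compound preincubation at room temperature.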
Lassa entry inh: blocks Lassa virus binding to or entry into cells; Potency, µM (titrated, usually from 37.9 µM), without a hit: top-dose activity change, negative = inhibition, hits mostly inhibitors; 300,000 compounds, 1.2% hits; Lassa virus pseudotype entry inhibition, cell reporter; control for the full effect not named in the record; AID 540256; active means well fitted inhibition curve with a large enough effect; inconclusive means small, poorly fitted or top-dose-only effect, or effect the other way; inactive means flat fitted curve, though single readings scatter; tested in HEK293 cells; also: % is scaled to controls: 0 for no effect and ±100 for the full control effect; nearly all actives have a fitted effect of over 50% in size; luciferase read-out
MARV entry inh: Marburg virus entry inhibition. Marburg virus pseudotyped entry inhibition, cell reporter; control for the full effect not named in the record; about a third of the inactives were read at about 46 µM. Potency, µM (series often up to 37.8 µM), inactives show top-dose activity change, negative = inhibition, actives largely listed as inhibitors. 300,000 compounds, 1.8% hits. AID 540276; active = well fitted inhibition curve with a large enough effect; inconclusive = small, poorly fitted or top-dose-only effect, or effect the other way; inactive = flat fitted curve, though single readings scatter; tested in HEK293 cells; about a fifth of its hits are not listed in these tables; also: % is scaled to controls: 0 for no effect and ±100 for the full control effect; luciferase read-out
NS1 inh: influenza NS1 inhibition. S. cerevisiae slowed by influenza A NS1, growth recovery by OD600. Potency, µM (top dose mostly 46.1 µM), for inactives: at the top dose activity, positive = more growth. 270,000 compounds, 0.4% hits; active means well fitted rising curve with a large enough effect; inconclusive means small, poorly fitted or top-dose-only effect; inactive means no such curve, though single readings can be large or run the other way; also: nearly all actives have a fitted effect of over 50% in size
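Compounds were scored for reversing the slow growth caused by influenza A NS1 in S. cerevisiae, measured by optical density at 600 nm. Assay medium contained 2% galactose at pH 6.0; NS1-free yeast of the same strain were the positive control.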
* = called active by the depositor; ? = inconclusive; · = no result given; & = joins results of further samples; [ ] = remark or other dose. Unless noted, calls follow the shape of the dose curve; as a rule, active = well fitted curve in the direction sought with a large enough effect; inconclusive = small, poorly fitted or top-dose-only effect, or another doubt; inactive = no such curve, though single readings can be large; an effect the other way counts as inactive or inconclusive. Potency is read from the fitted curve at half-maximal effect. Not a hit list. Share with any hit: about 4.6%.

SMILES	RE007 growth inh	SARS PLP yeast	Cruzain inh noDet	StopGo reporter	Cruzain inh Det	Lassa entry inh	MARV entry inh	NS1 inh
CCOC(=O)c1sc(NC(=O)CCCn2nc([N+](=O)[O-])c(Cl)c2C)c(C(=O)OCC)c1C	-3%	16%	-10%	-9%	-2.5%	-12%	-1%	2%
COc1ccc(S(=O)(=O)NCC(c2ccco2)S(=O)(=O)c2ccc(C)cc2)cc1F (stereo not given)	·	·	4%	48%[activator]	-4.3%	?	·	·
O=C1CSC(c2cn(-c3ccccc3)nc2-c2ccccc2)N1Cc1ccco1 (stereo not given)	-3%	?	-1%	?	-1.0%	?	?	-58%
CCOC(=O)C1CCN(C(=O)Cn2nc(C)c3c(C)n(-c4ccccc4)nc3c2=O)CC1	3%	1%	·	-9%	·	0%[46.1 µM]	-1%[46.1 µM]	4%
COc1ccc(OC)c(-c2nnc(SCC(=O)N3CCCc4ccccc43)o2)c1	18%	-10%	?	0%	-5.7%	-18%	-3%&-3%[46.1 µM]	-16%
O=C1CC(Nc2cc(=O)[nH]c(=O)[nH]2)C(=O)N1c1ccccc1Cl (stereo not given)	3%	2%	·	-13%	·	·	·	-35%
COc1ccc(N2CCN(C(=O)c3ccc4c(Cl)c5c(nc4c3)CCCC5)CC2)cc1	11%	-20%	10%&1%	?	5.8%&-3.5%	?	24%[46.1 µM]	9%
CCOC(=O)c1c(NC(=O)C2C3C=CC(C3)C2C(=O)O)sc2c1CCC(CC)C2 (stereo not given)	12%	-8%	?	0%	?	1%	?	15%
Cc1ccc(S(=O)(=O)N2CCN(C(=O)c3ccccc3)C2C(C)C)cc1 (stereo not given)	5%	-1%	15%	-1%	3.7%	-5%	-14%	-7%
Cc1ccc(N(CC(=O)Nc2ccc(Br)c(C)c2)S(=O)(=O)c2cccs2)cc1	·	·	?	-18%	-5.1%	5%[46.1 µM]	?	·
COC(=O)c1sc2nc(SCc3ccccc3C)n(N)c(=O)c2c1C	-6%	-28%	32µM*	7%	-3.5%	-1%	?	2%
O=c1[nH]c(C2CCN(S(=O)(=O)c3ccccc3C(F)(F)F)CC2)nc2c1nnn2Cc1cccc(F)c1	13%	3%	·	-5%	·	?	?	16%
Cc1ccc(-c2cnc(C3CC3)o2)cc1S(=O)(=O)Nc1cccc(C)c1C	·	·	3%	27%	-6.3%	7%[46.1 µM]	·	·
Cc1ccccc1CSc1nc2cc(C(=O)NC3CCCC3)ccc2c(=O)n1Cc1ccccc1	·	·	3%	-24%	0.1%	-12%[46.1 µM]	·	·
O=C(CSc1ccccn1)Nc1ccc(F)c([N+](=O)[O-])c1	4%	0%	·	14%	·	8%	3%	-1%
COC(=O)c1cccn(CC(=O)c2ccc(Cl)cc2)c1=O	3%	18%	·	0%	·	-9%	-13%[46.1 µM]	11%
COc1ccc(N(C(=O)c2ccc(C)cc2)S(=O)(=O)c2ccc(Cl)cc2)cc1	·	·	?	0%	-3.4%	?	·	·
Cn1cc2c(=O)n(/N=C/c3ccccc3)cnc2n1	-14%	0%	2%	41%[activator]	-0.3%	-1%	11%	7%
CC(=O)Nc1cccc(NC(=O)CSc2nnc3ccc(-c4ccncc4)nn23)c1	0%	-8%	·	3%	·	5%	-29%	·
CCN(CC)C(=O)NC1CC(=O)N(c2ccc(OC)cc2)C1 (stereo not given)	5%	21%	-7%	-12%	-2.0%	1%	8%	-4%
NC(=O)c1ccccc1NC(=O)CCN1C(=O)c2ccccc2C1=O	-4%	5%	-6%	·	4.6%	0%	6%	-2%
Cc1ccc(NC(=O)CN2CCc3cc4c(cc3C2C)OCCCO4)cc1C (stereo not given)	7%	-1%	·	?	·	·	·	-44%
COc1cc(C)c(Br)cc1S(=O)(=O)NCCCN1CCOCC1	2%	1%	·	39%[activator]	·	-1%	-11%[46.1 µM]	2%
Cc1ccccc1NC(=S)NC1CCCC1	2%	?	·	4%	·	?	-13%	2%
O=C(c1ccc(Cl)c([N+](=O)[O-])c1)N1CCN(c2ccccc2)CC1	?	0%	·	-12%	·	-13%[46.1 µM]	?	-7%
(further entries)
SMILES	RE007 growth inh	SARS PLP yeast	Cruzain inh noDet	StopGo reporter	Cruzain inh Det	Lassa entry inh	MARV entry inh	NS1 inh
CCc1nnc(NC(=O)c2nc(SCc3ccc(F)cc3)ncc2Cl)s1	·	·	-19%	47%[activator]	-6.2%	-4%[46.1 µM]	-17%[46.1 µM]	·
CCCc1cnc2c(c1SCC(=O)Nc1ccc([N+](=O)[O-])cc1)c(=O)n(C)c(=O)n2C	·	·	-13%	16µM*	-0.3%	?	·	·
COc1ccc(S(=O)(=O)NCc2cccnc2)cc1C(=O)NC1CCCCC1	?	25%	·	5%	·	4%	-3%	4%
CCc1noc(C)c1C(=O)Oc1ccc(N(C)S(=O)(=O)c2ccccc2)cc1	35%	1%	·	18µM*	·	?	?	·
CCCCOc1ccc(C(=O)NCC(=O)NCC(c2ccc(OC)cc2)N2CCCC2)cc1 (stereo not given)	-29%	1%	·	-5%	·	-10%	-16%	·
O=C(CSc1n[nH]c(-c2cccs2)n1)N1CCCCC1	10%	-8%	·	25%	·	6%	10%	·
Cc1cccc(N2CCN(C(=O)C(C)n3nc(C)n4c(cc5occc54)c3=O)CC2)c1C (stereo not given)	-4%	-23%	?	?	-3.7%&-7.8%	3%[46.1 µM]	?	?
COC(=O)c1sc(-c2cccs2)cc1NC(=O)/C=C/C(=O)O	-19%	-10%	·	?	·	6%[46.1 µM]	-24%[46.1 µM]	-6%
CN(Cc1ccccc1)C(=O)C1CCN(Cc2ccc(F)cc2)CC1	-3%	-3%	14%	2%	2.5%	-22%	?	0%
O=C(CCN1C(=O)c2ccccc2C1=O)NCc1ccc(Cl)cc1	9%	-5%	·	8%	·	·	9%[46.1 µM]	0%
NS(=O)(=O)c1ccc(NC(=O)COc2cccc3ccccc23)cc1	7%	1%	·	0%	·	-16%	?	-3%
COc1cc2c(cc1OC)C(C)N(C(=O)Nc1cc(C)cc(C)c1)CC2 (stereo not given)	2%	-1%	·	-17%	·	·	·	-4%
COC(=O)c1ccc(S(=O)(=O)N(CCO)Cc2ccccc2)n1C	-6%	1%	·	19%	·	1%[46.1 µM]	5%[46.1 µM]	0%
CCOC(=O)C(C)c1nn(C)c(=O)c2ccccc12 (stereo not given)	0%	2%	1%	?	0.1%	-2%	?	4%
O=C(NCc1ccco1)C1CCCN(S(=O)(=O)c2ccc(Cl)cc2)C1 (stereo not given)	4%	1%	-2%	-4%	8.4%	-20%	0%	4%
O=[N+]([O-])c1cccc(-c2nnc(SCc3cccnc3)o2)c1	-3%	1%	·	16%	·	21%	10%	-3%
NNc1nc(-c2ccccc2Cl)nc2sc3c(c12)CCCC3	3%	-13%	?	-1%	-10%	?	32%	?
Cc1cccc(C(=O)N2CCc3cc(-c4nc(NC(=O)CN5CCCC5)sc4C)ccc32)c1	-7%	-2%	·	-21%	·	?	10µM*	7%
O=C(COC(=O)c1cccnc1Cl)NCc1ccc2c(c1)OCO2	15%	23%	-1%	-7%	-0.9%	1%	-1%	-7%
Cc1ccc(NC(=O)Cn2cncc2-c2ccc([N+](=O)[O-])cc2)cc1C	6%	2%	-13%	-3%	?	-24%	-12%	2%
C=CCn1cccc(C(=O)Nc2ccc(OC)cc2)c1=O	-6%	-8%	·	2%	·	-8%	6%[46.1 µM]	-3%
CC1CCCN(C(=O)CSc2nnc(-c3cccnc3)n2C2CCCCC2)C1 (stereo not given)	0%	7%	13%	-2%	2.1%	18%	19%	-3%
Cc1csc(NC(=O)c2nn(C)c(C)c2[N+](=O)[O-])n1	1%	8%	-10%	36%[activator]	-2.4%	29%	40%	6%
Cc1nc2ccc(N=NC3=C(O)CCCC3=O)cc2s1	3%	-5%	-1%	32%[activator]	-4.7%	4%	-4%[46.1 µM]	-14%
Cc1cc(Br)ccc1SCC(=O)Nc1cccnc1	-1%	0%	·	-19%	·	2%[46.1 µM]	?	-6%
The list continues.
SMILES	RE007 growth inh	SARS PLP yeast	Cruzain inh noDet	StopGo reporter	Cruzain inh Det	Lassa entry inh	MARV entry inh	NS1 inh
O=C(c1cc(COc2ccc3ncccc3c2)on1)N1CCCC(O)C1 (stereo not given)	10%	-1%	·	-20%	·	-5%[46.1 µM]	-18%[46.1 µM]	3%
CCC(=O)Nc1ccccc1-c1nc2ccccc2[nH]c1=O	4%	8%	·	11%	·	-2%	9%	15%
Cc1ccc(-n2c(SCC(=O)O)nc3sc4c(c3c2=O)CCCC4)cc1	16%	0%	3%	-8%&-16%	-2.4%	?	12%&12%[46.1 µM]	3%
CC(NC(=O)c1cc(-c2ccc(Br)cc2)on1)c1ccccc1 (stereo not given)	10%	2%	16µM*	16%	6.5%	-5%	?	1%
CCCCc1nc2c(=O)[nH]c3ccccc3c2o1	18%	-1%	6%	31%[activator]	-1.0%	?	7%	-3%
CCN(CC)CCOC(=O)C(Cc1ccco1)Cc1cccc2ccccc12 (stereo not given)	5%	·	·	-8%	·	?	?	·
Cc1cccc(Cn2c(=O)n(CCc3ccccc3)c(=O)c3c(C)c(C)sc32)c1	·	·	-10%	0%	-2.0%	27%[46.1 µM]	-11%[46.1 µM]	·
O=C(CSc1nc2nc(-c3cccs3)cc(C(F)(F)F)c2c(=O)[nH]1)C(F)(F)F	10%	1%	·	0%	·	·	·	4%
Cn1ncc2nnn(-c3ccccc3)c(=O)c21	-18%	-2%	-15%	-13%	-1.1%	11%	22%&22%	-1%
COc1ccc(-n2nc3c(c2NC(=O)C2CCCC2)CS(=O)C3)cc1 (stereo not given)	-3%	-7%	-10%	-5%	1.0%	·	·	-1%
CCCC1(C(=O)OCC)NC(c2ccc(N(C)C)cc2)C2C(=O)N(c3ccccc3)C(=O)C21 (stereo not given)	1%	-19%	-5%	0%	-1.6%	11%	-2%	-1%
COc1cccc(-n2nc3c(=O)n(Cc4ccccc4Cl)nc(C)c3c2C)c1	6%	-18%	13%	19%	-8.3%	-3%	0%	7%
